Source: PubChem BioAssay (Broad Institute)
Vaccinia stage: blocks a specific stage of Vaccinia orthopoxvirus infection, primary screen, cell-based, single point | 0.01% of 89,000 active | activity change (mCherry), % (test concentration not listed) | Vaccinia-infected cells, mCherry/Venus stage reporter fluorescence; stronger effect = lower value; some inactives read as strong as hits;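 active means mCherry past -33% and 40 or more points under the early reporter, replicates agreeing; inconclusive means past -33% without that gap or agreement; tested in A549 cells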;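 further: scaled between vehicle wells and reference inhibitor wells; 23 nL library stock went into each well; one replicate is shown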
Vaccinia stage Venus: further read-out of Vaccinia stage, marked with its call; activity change (Venus), %; measured here: Venus reporter, other viral stage;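 negative = less Venus signal; first of two replicates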
An asterisk follows results filed as active; ? = inconclusive; . = no result given; & = joins results of further samples.

The line under a structure holds: Vaccinia stage, Vaccinia stage Venus
C[C@@H]1CCCCO[C@@H](CN(C)C(=O)NC2CCCCC2)[C@@H](C)CN([C@H](C)CO)C(=O)c2cc(NS(=O)(=O)c3ccccc3)ccc2O1
 : 18, 8
C[C@@H]1CN([C@@H](C)CO)C(=O)c2cccc(NS(=O)(=O)c3ccc(F)cc3)c2O[C@H]1CN(C)Cc1ccc(Cl)c(Cl)c1
 : -5, -7
CCN1[C@@H]2Cn3c(ccc(/C=C/c4ccccc4)c3=O)[C@H]1[C@@H](C(=O)NC1Cc3ccccc3C1)[C@@H]2CO
 : ?, .
CN1C(=O)c2cc(NC(=O)C3CCC3)ccc2OC[C@H]2O[C@H](CC(=O)NCCc3ccncc3)CC[C@@H]21
 : 1, -3
Cc1ccc(S(=O)(=O)Nc2ccc3c(c2)C(=O)N([C@H](C)CO)C[C@@H](C)[C@H](CN(C)C(=O)Nc2ccc4c(c2)OCO4)OCCCC[C@H](C)O3)cc1
 : -29, -25
Cc1ccc(S(=O)(=O)Nc2cccc3c2O[C@@H](CN(C)C(=O)NC2CCCCC2)[C@H](C)CN([C@@H](C)CO)C3=O)cc1
 : -10, -10
CNC(=O)C[C@H]1CC[C@H]2[C@@H](COc3ccc(NC(=O)Nc4ccc(F)cc4)cc3C(=O)N2C)O1
 : 1, -1
CO[C@H]1CN(C)C(=O)c2cc(NC(C)=O)ccc2OC[C@@H](C)N(C(=O)C2CCOCC2)C[C@@H]1C
 : 25, 6
CC(C)NC(=O)Nc1cccc2c1O[C@@H](CN(C)CC1CCCCC1)[C@@H](C)CN([C@@H](C)CO)C2=O
 : -11, -6
CO[C@H]1CN(C)C(=O)c2cc(NS(=O)(=O)c3ccc(C)cc3)ccc2OC[C@H](C)N(C(=O)NC(C)C)C[C@H]1C
 : 10, 1
C[C@H](CO)N1C[C@H](C)[C@H](CN(C)C(=O)NC2CCCCC2)Oc2ccc(NC(=O)NC3CCCCC3)cc2CC1=O
 : 9, 6
O=C(C[C@@H]1C[C@H]2c3cc(NC(=O)Cc4ccncc4)ccc3O[C@H]2[C@H](CO)O1)NCc1cc(F)ccc1F
 : 5, 9
C[C@@H]1CN([C@@H](C)CO)C(=O)c2cccc(NC(=O)Nc3ccc(C(F)(F)F)cc3)c2O[C@H]1CN(C)C(=O)Nc1ccc(C(F)(F)F)cc1
 : -23, -7
CNC[C@H]1OCCCC[C@@H](C)Oc2ccc(NC(=O)NC3CCCCC3)cc2C(=O)N([C@H](C)CO)C[C@H]1C
 : 0, 3
COc1cc(CN2CC3(CN(C(=O)Nc4c(C)noc4C)C3)c3c(n(C)c4cc(OC)ccc34)[C@H]2CO)cc(OC)c1
 : 29, 8
CC(C)C#Cc1cnc2c(c1)C(=O)N([C@H](C)CO)C[C@@H](C)[C@H](CN(C)C(=O)c1ccccc1F)O2
 : 3, -3
COc1cccc(-c2cnc3c(c2)C(=O)N([C@@H](C)CO)C[C@H](C)[C@H](CN(C)C(C)=O)O3)c1
 : 1, 7
COc1cccc(C(=O)Nc2ccc3c(c2)C(=O)N(C)[C@H]2CC[C@H](CC(=O)NCCCN4CCOCC4)O[C@@H]2CO3)c1
 : 16, 20
C[C@H](O)C#Cc1cnc2c(c1)C(=O)N([C@@H](C)CO)C[C@@H](C)[C@H](CN(C)C(=O)c1ccccc1)O2
 : 9, -1
C[C@@H]1CN([C@@H](C)CO)S(=O)(=O)c2ccc(C#CC3(O)CCCC3)cc2O[C@@H]1CN(C)C(=O)Nc1ccc(F)cc1
 : -5, -5
CO[C@@H]1CN(C)C(=O)c2ccc(NC(=O)NC(C)C)cc2OC[C@H](C)NC[C@H]1C
 : 4, 7
C/C=C/c1cnc2c(c1)C(=O)N([C@H](C)CO)C[C@@H](C)[C@H](CN(C)C(=O)c1ccc3c(c1)OCO3)O2
 : 15, 10
N#Cc1cccc(-c2ccc(C3[C@H]4CNC[C@@H]3N4S(=O)(=O)c3cccc(F)c3)cc2)c1 (stereo partly specified)
 : 20&13, 14&12
O=C(C[C@@H]1C=C[C@@H](NC(=O)Nc2cc(F)ccc2F)[C@H](CO)O1)Nc1ccccc1
 : -8, 3
CO[C@H]1CN(C)C(=O)c2cc(NC(=O)NC3CCCCC3)ccc2OC[C@H](C)N(C)C[C@@H]1C
 : 8, 8
CN(C)C(=O)C[C@@H]1C=C[C@H](NC(=O)NC2CCCCC2)[C@@H](CO)O1
 : -3, 14
C[C@H](CO)N1C[C@H](C)[C@H](CN(C)Cc2ccc(C(=O)O)cc2)Oc2ccc(NS(=O)(=O)c3ccc(F)cc3)cc2CC1=O
 : 7, 10
O=C(Nc1ccc(F)cc1)N1CCCCN2[C@H](CO)[C@H](c3ccc(-c4ccncc4)cc3)[C@@H]2C1
 : -9, -12
COc1ccc2c3c(n(C)c2c1)[C@H](CO)N(Cc1ccccc1OC)CC31CCN(C)CC1
 : -25, -27
CCC(=O)Nc1ccc2c(c1)C(=O)N(C)C[C@H](OC)[C@H](C)CN(Cc1cccc(F)c1)[C@@H](C)CO2
 : 5, 5

A draw from above in order of length of the SMILES, lowest first:
The line under a structure holds: Vaccinia stage, Vaccinia stage Venus
CO[C@@H]1CN(C)C(=O)c2ccc(NC(=O)NC(C)C)cc2OC[C@H](C)NC[C@H]1C
 : 4, 7
O=C(C[C@@H]1C=C[C@@H](NC(=O)Nc2cc(F)ccc2F)[C@H](CO)O1)Nc1ccccc1
 : -8, 3
N#Cc1cccc(-c2ccc(C3[C@H]4CNC[C@@H]3N4S(=O)(=O)c3cccc(F)c3)cc2)c1 (stereo partly specified)
 : 20&13, 14&12
CO[C@H]1CN(C)C(=O)c2cc(NC(C)=O)ccc2OC[C@@H](C)N(C(=O)C2CCOCC2)C[C@@H]1C
 : 25, 6
CC(C)C#Cc1cnc2c(c1)C(=O)N([C@H](C)CO)C[C@@H](C)[C@H](CN(C)C(=O)c1ccccc1F)O2
 : 3, -3
O=C(C[C@@H]1C[C@H]2c3cc(NC(=O)Cc4ccncc4)ccc3O[C@H]2[C@H](CO)O1)NCc1cc(F)ccc1F
 : 5, 9
C[C@H](O)C#Cc1cnc2c(c1)C(=O)N([C@@H](C)CO)C[C@@H](C)[C@H](CN(C)C(=O)c1ccccc1)O2
 : 9, -1
CCN1[C@@H]2Cn3c(ccc(/C=C/c4ccccc4)c3=O)[C@H]1[C@@H](C(=O)NC1Cc3ccccc3C1)[C@@H]2CO
 : ?, .
C[C@@H]1CN([C@@H](C)CO)S(=O)(=O)c2ccc(C#CC3(O)CCCC3)cc2O[C@@H]1CN(C)C(=O)Nc1ccc(F)cc1
 : -5, -5
C[C@@H]1CN([C@@H](C)CO)C(=O)c2cccc(NS(=O)(=O)c3ccc(F)cc3)c2O[C@H]1CN(C)Cc1ccc(Cl)c(Cl)c1
 : -5, -7
C[C@@H]1CCCCO[C@@H](CN(C)C(=O)NC2CCCCC2)[C@@H](C)CN([C@H](C)CO)C(=O)c2cc(NS(=O)(=O)c3ccccc3)ccc2O1
 : 18, 8

Later entries
The line under a structure holds: Vaccinia stage, Vaccinia stage Venus
O=C(C[C@@H]1CC[C@H]2[C@@H](COC[C@H](O)CN2Cc2nccs2)O1)NCc1ccccc1Cl
 : -3, 4
COc1ccc2c3c([nH]c2c1)[C@@H](CO)N(C(=O)C1CCCC1)CC31CN(C)C1
 : 6, 6
COc1ccc2c3c([nH]c2c1)[C@@H](CO)N(C(=O)CN(C)C)CC31CN(C(=O)c2cccnc2)C1
 : 15, 5
COCC(=O)N(C)C[C@@H]1Oc2ncc(-c3cccc(OC)c3)cc2C(=O)N([C@@H](C)CO)C[C@@H]1C
 : 11, 8
Cc1cc(C(=O)Nc2cccc3c2O[C@@H](CN(C)CC2CCCCC2)[C@H](C)CN([C@H](C)CO)C3=O)n(C)n1
 : -7, -1
COCCNC(=O)C[C@@H]1C[C@@H]2c3cc(NC(=O)COC)ccc3O[C@@H]2[C@H](CO)O1
 : 19, 6
C[C@H](CO)N1C[C@H](C)[C@H](CN(C)Cc2ccc3c(c2)OCO3)OCCCC[C@H](C)Oc2ccc(NC(=O)Nc3ccccc3)cc2C1=O
 : ?, .
CO[C@@H]1CN(C)C(=O)c2ccc(NS(=O)(=O)CC(F)(F)F)cc2OC[C@H](C)N(Cc2cccnc2)C[C@H]1C
 : 19, 9
CCCNC(=O)C[C@H]1CC[C@H]2[C@H](COc3ccc(NC(=O)c4cccc(C(F)(F)F)c4)cc3C(=O)N2C)O1
 : -3, -2
C[C@@H]1CN([C@H](C)CO)C(=O)c2cc(NS(=O)(=O)c3ccc(Cl)cc3)ccc2O[C@H]1CN(C)Cc1ccc(C(=O)O)cc1
 : 37, 13
COc1ccc(CN2[C@H](CO)[C@@H]3c4ccccc4N(C(=O)Nc4ccc(F)cc4)C[C@@H]32)cc1
 : -14, -11
CN(C)C(=O)C[C@H]1C[C@@H]2c3cc(NC(=O)NC4CCCC4)ccc3O[C@@H]2[C@@H](CO)O1
 : 7, 10
COC(=O)[C@H]1[C@H](CO)[C@H]2Cn3c(ccc(-c4cccc(F)c4)c3=O)[C@H]2N1Cc1ccncc1
 : 6, 18
Cc1ccccc1-c1ccc([C@H]2[C@@H](CO)N3CCCCN(S(C)(=O)=O)C[C@@H]23)cc1
 : 16, 8
CC(C)NC(=O)Nc1ccc2c(c1)C(=O)N([C@H](C)CO)C[C@H](C)[C@H](CN(C)C(=O)Cc1ccccc1)OCCCC[C@H](C)O2
 : 1, 2
COc1ccc(-c2cn(CC[C@@H]3CC[C@H](NS(=O)(=O)c4ccccc4C)[C@@H](CO)O3)nn2)cc1
 : -26, -17
CO[C@H]1CN(C)C(=O)c2ccc(NC(=O)C3CC3)cc2OC[C@H](C)N(CC2CCCC2)C[C@@H]1C
 : -25, -16
CCNC(=O)C[C@@H]1CC[C@H]2[C@H](COc3ccc(NC(=O)c4ccccc4)cc3C(=O)N2C)O1
 : 10, 9
O=C(Nc1cc(F)ccc1F)N[C@H]1CC[C@@H](CC(=O)N2CCc3ccccc3C2)O[C@H]1CO
 : -1, 16
COc1ccc2c3c(n(C)c2c1)[C@H](CO)N(Cc1ccccc1)CC31CN(C)C1
 : -3, -7
Cc1noc(C)c1NC(=O)Nc1ccc2c(c1)C(=O)N([C@H](C)CO)C[C@H](C)[C@@H](CN(C)S(=O)(=O)c1ccc(F)cc1)OCCCC[C@@H](C)O2
 : 13, 5
C[C@H]1CN([C@@H](C)CO)C(=O)c2cc(NC(=O)Nc3ccc4c(c3)OCO4)ccc2O[C@H]1CN(C)Cc1ccc(-c2ccccc2)cc1
 : -26, -17
Cc1ccc(S(=O)(=O)N[C@@H]2C=C[C@@H](CC(=O)N3CCN(c4ccccc4)CC3)O[C@@H]2CO)cc1
 : 1, -4
CCC(=O)Nc1ccc2c(c1)C(=O)N(C)[C@@H]1CC[C@H](CC(=O)NCCOC)O[C@@H]1CO2
 : 14, 9
O=C(c1ccc2c(c1)OCO2)N1CC2(C1)[C@H](c1ccccc1)[C@@H](CO)N2C(=O)C1CC1
 : 4, 3
CO[C@H]1CN(C)C(=O)c2cc(NC(C)=O)ccc2OC[C@H](C)N(Cc2ccccc2F)C[C@@H]1C
 : 1, 10
C[C@@H]1CN([C@@H](C)CO)C(=O)c2cc(NC(=O)Nc3cccc4ccccc34)ccc2O[C@@H]1CN(C)S(=O)(=O)c1cccs1
 : 32, 25
COc1ccc(C(=O)N2C[C@@H]3[C@H](c4ccccc42)[C@H](CO)N3Cc2ccc3c(c2)OCO3)cc1
 : 12, 8
C[C@@H]1CN([C@H](C)CO)C(=O)Cc2cc(NS(C)(=O)=O)ccc2O[C@@H]1CN(C)Cc1ccc(C(=O)O)cc1
 : 28, 20
CC(C)NC(=O)Nc1ccc2c(c1)C(=O)N([C@@H](C)CO)C[C@@H](C)[C@H](CN(C)Cc1ccncc1)OCCCC[C@@H](C)O2
 : 19, 9
CO[C@H](CN(C)S(=O)(=O)c1cn(C)cn1)[C@@H](C)CN(C(=O)Nc1ccc(F)cc1)[C@@H](C)CO
 : 12, 6
O=C(C[C@H]1C=C[C@H](NC(=O)CN2CCOCC2)[C@@H](CO)O1)NCCc1ccncc1
 : 13, 10
CCC(=O)N1CC(=O)N2[C@H](CO)[C@H](c3ccc(C#CC4CCCCC4)cc3)[C@@H]2C1
 : 0, -36
C[C@H](CO)N1C[C@H](C)[C@@H](CN(C)C(=O)c2ccccc2)OCCCC[C@H](C)Oc2ccc(NS(=O)(=O)c3ccccc3)cc2C1=O
 : 4, 5
C[C@H]1CN([C@@H](C)CO)C(=O)c2cccc(N(C)C)c2O[C@H]1CN(C)C(=O)NC1CCCCC1
 : 16, 1
CCC(=O)Nc1ccc2c(c1)C(=O)N(C)C[C@H](OC)[C@@H](C)CN(C(=O)c1cccnc1)[C@H](C)CO2
 : 13, 8
COc1ccc(S(=O)(=O)Nc2cccc3c2O[C@H](CN(C)C(=O)Nc2ccc(F)cc2)[C@H](C)CN([C@@H](C)CO)C3=O)cc1
 : 10, 3
CN1C(=O)c2cc(NS(C)(=O)=O)ccc2OC[C@H]2O[C@@H](CC(=O)NCc3ccccc3)CC[C@H]21
 : 8, 6
C[C@@H]1CN([C@@H](C)CO)C(=O)CCCn2nncc2CO[C@H]1CN(C)Cc1ccc(Oc2ccccc2)cc1
 : -15, -16
Cc1ccc(S(=O)(=O)N(C)C[C@H]2Oc3ccc(NC(=O)CCC(F)(F)F)cc3CC(=O)N([C@H](C)CO)C[C@H]2C)cc1
 : -22, -22
COc1ccc(S(=O)(=O)Nc2cccc3c2O[C@@H](CN(C)S(=O)(=O)c2cn(C)cn2)[C@H](C)CN([C@H](C)CO)C3=O)cc1
 : 13, 8
Cc1noc(C)c1NC(=O)Nc1ccc2c(c1)C(=O)N([C@H](C)CO)C[C@@H](C)[C@H](CN(C)Cc1ccncc1)O2
 : 9, 6
COc1ccccc1CNC(=O)C[C@H]1CC[C@@H]2[C@H](COC[C@H](O)CN2C(=O)Nc2ccc(Cl)cc2)O1
 : -18, -14
COCCNC(=O)C[C@@H]1CC[C@H](NS(=O)(=O)c2ccc(C)cc2)[C@H](CO)O1
 : 1, -10
C[C@H](CO)N1C[C@H](C)[C@H](CN(C)C)Oc2ncc(/C=C/c3ccccc3)cc2C1=O
 : -3&-1, 1&2

This is a subset. The share of hits here may be higher or lower than overall.
